# Bioassay records: PubChem, National Center for Advancing Translational Sciences (NCATS)
# HPGD inh: blocks human HPGD enzyme activity; P15428; purified HPGD, NADH fluorescence kinetic, PGE2 substrate; Potency, µM, for inactives: at the top dose activity change, negative = inhibition, actives largely listed as inhibitors; 150,000 tested, 4.3% active; active = well fitted inhibition curve with a large enough effect (not every such curve was filed as active); inconclusive = small, poorly fitted or top-dose-only effect, or another doubt; inactive = no such curve, though single readings can be large or run the other way;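 note: top concentration of the series not given in the record; plate controls included wells without enzyme; inactives centre near -10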
# Target sequence (P15428 whole entry, looked up): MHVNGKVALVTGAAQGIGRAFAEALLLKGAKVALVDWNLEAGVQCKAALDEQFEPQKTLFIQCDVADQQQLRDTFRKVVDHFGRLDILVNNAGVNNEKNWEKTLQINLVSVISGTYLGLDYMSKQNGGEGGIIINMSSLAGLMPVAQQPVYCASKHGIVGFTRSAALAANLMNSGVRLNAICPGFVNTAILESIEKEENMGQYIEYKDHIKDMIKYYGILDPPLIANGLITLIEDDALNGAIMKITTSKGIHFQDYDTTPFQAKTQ
#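 20 nM HPGD preincubated 15 min at room temperature with compound in 50 mM Tris-HCl pH 8, 0.01% Tween 20. Started with 1 mM NAD+ and 30 uM prostaglandin E2; NADH fluorescence (360/450 nm) read 5 times over 30-s intervals, last minus first.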
# Starred values were filed as active, the others as inactive; ? = inconclusive. % is set by controls: 0 for no effect and ±100 for the full control effect; potency is the fitted concentration of half-maximal effect. The list is partial. The share of hits here may be higher or lower than overall.
HPGD inh | structure
1.6% | CCCCCC1C(=O)CCC1CC(=O)OC (stereo not drawn)
-3.8% | CCOC(=O)N1CCN(c2c(NCC3CCN(Cc4cccc(C)c4)CC3)c(=O)c2=O)CC1
? | CCOC(=O)c1sc2nc(CC(=O)OC)nc(NCCN(CC)CC)c2c1C
-4.4% | COc1cccc(NC(=S)N(Cc2ccco2)C(C)c2ccco2)c1 (stereo not drawn)
? | CC1=CC(=O)c2ccccc2C1=O
? | COc1ccc(C2Nc3ccccc3C(=O)N2c2ccccc2)cc1CSc1ccccn1 (stereo not drawn)
-5.5% | COc1ccc(-c2noc(CSc3nc4sc(C)c(C)c4c(=O)n3-c3ccccc3)n2)cc1
3.16µM* | Clc1ccc(OCc2nn3c(-c4ccco4)nnc3s2)c(Cl)c1
-6.2% | O[C@H](CNc1ccccn1)c1ccccc1
-9.2% | O=C(CN(CCc1ccccc1)C(=O)CN1C(=O)COc2ccccc21)NCc1ccco1
-9.0% | Cc1cccc(NS(=O)(=O)c2ccc(Cl)c(C(=O)O)c2)c1
-8.4% | O=c1[nH]c2ccccc2n2c(-c3ccncc3)nnc12
-6.2% | CCOc1ccc(CCNC(=O)CSc2cc(=O)n(CC)c3ccccc23)cc1OCC
-14.2% | CCN(CC)CCCN(Cc1cc2cc(OC)ccc2[nH]c1=O)C(=O)Nc1ccc(F)cc1
0.5% | CCN1C(=O)CC(Sc2ccccc2C(=O)O)C1=O (stereo not drawn)

# By substructure, those above containing an aryl methoxy group (four)
HPGD inh | structure
-4.4% | COc1cccc(NC(=S)N(Cc2ccco2)C(C)c2ccco2)c1 (stereo not drawn)
? | COc1ccc(C2Nc3ccccc3C(=O)N2c2ccccc2)cc1CSc1ccccn1 (stereo not drawn)
-5.5% | COc1ccc(-c2noc(CSc3nc4sc(C)c(C)c4c(=O)n3-c3ccccc3)n2)cc1
-14.2% | CCN(CC)CCCN(Cc1cc2cc(OC)ccc2[nH]c1=O)C(=O)Nc1ccc(F)cc1

# The list goes on:
HPGD inh | structure
-21.2% | Cc1cc(C(=O)N/N=C/c2ccc[nH]2)no1
? | Cc1nc(C#N)c(NCc2ccc3c(c2)OCO3)o1
? | Brc1ccc2[nH]c3c(N4CCc5ccccc5C4)ncnc3c2c1
2.5% | CCOC(=O)C1=C(CSc2nccn2C)NC(=O)NC1c1ccc(OC)cc1 (stereo not drawn)
? | COc1ccccc1-c1cc(C(=O)N/N=C/c2sccc2C)c2ccccc2n1
-4.1% | COc1ccc2nc(NC(=O)CSc3nnc4n3C(C)(C)Cc3ccccc3-4)sc2c1
? | Cc1sc2nc(-c3cccnc3)nc(Cl)c2c1-c1ccccc1
? | CCC1(C)Cc2ccccc2-c2nc(NCCO)n(-c3ccccc3)c(=O)c21 (stereo not drawn)
-19.4% | COc1ccc(CNC(=O)/C=C/c2ccc(OCCCF)cc2)cc1OC
-2.8% | Cc1cc(C)nc(N(C#N)Cc2ccccc2Cl)n1
-22.4% | CCOC(=O)c1sc(=S)n(-c2ccccc2)c1SC
-21.4% | Cc1cc(C)nc(SCCc2ccncc2)n1
-1.9% | CCCN(CC1CC1)C(=S)Nc1ccc(Oc2ccccc2)cc1
-14.4% | CCCCCCn1c(NCC)nc2c1c(=O)n(C)c(=O)n2C
1.3% | CCNCC(O)COCC(O)CNCC (stereo not drawn)

# (continued)
HPGD inh | structure
-25.0% | O=C(/C=C/c1cccc([N+](=O)[O-])c1)N1CCOCC1
-9.3% | O=c1[nH]c2cc(Br)cnc2nc1/C=C(\O)c1ccc(F)cc1
-8.1% | c1cc(-n2cnnn2)ccc1NC1=NCCC1
-17.7% | COc1ccc(NC(=O)N(CCN2CCCC2)Cc2cc3cc(OC)c(OC)cc3[nH]c2=O)cc1
-2.5% | COC(=O)c1ccc(C(NC(=O)OCc2ccccc2)/C(=C/[C@@H](C)C(=O)NCC2CC2)c2cccnc2)cc1 (stereo partly drawn)
-9.7% | Cc1ccc(N2C(=O)c3n[nH]c(C)c3C2c2ccco2)cc1 (stereo not drawn)
-5.6% | O=S(=O)(CCN1CCN(C(c2ccccc2)c2ccccc2)CC1)C(F)(F)F
-12.0% | Cc1c(CCO)c(=O)n(C)n1C(=O)c1ccc(Cl)cc1
-2.0% | Nc1nonc1C(=O)NCCNCc1ccccc1
? | COC(=O)c1cc2c(=O)n3cccc(C)c3nc2n(Cc2cccnc2)c1=N
-24.5% | Cn1cc(C(=O)c2ccc(F)cc2)cc1-c1nc2ccccc2n1C
-19.2% | CCCCCCCCNC(=O)/C(C#N)=C/c1ccc(SC)cc1
-2.2% | O=C1CN(C(=O)CC2c3ccccc3-c3ccccc32)CC(=O)N1
-6.7% | Cc1cc(C)n(-c2nc(-c3cccc(Cl)c3)cs2)n1
-9.6% | S=C(Nc1ccc2nsnc2c1)N1CCCCC1

# Later entries
HPGD inh | structure
-6.8% | COc1ccc(NC(=O)C(NS(=O)(=O)c2ccc3c(c2)CCCN3C(C)=O)C(C)C)c(OC)c1 (stereo not drawn)
-15.4% | CC(/C=C/C(=O)c1ccc(C)cc1)=C\c1ccccc1
7.2% | Cc1ccc(S(=O)(=O)NCCOCCNS(=O)(=O)c2ccc(C)cc2)cc1
2.5% | COc1ccc(C(=O)Nc2ccccc2)cc1S(=O)(=O)Nc1cc(C)on1
2.9% | O=C1c2ccccc2C(Cc2ccnc(F)c2)(Cc2ccnc(F)c2)c2ccccc21
? | C[C@H]1C(c2ccc(F)cc2)=NN(c2ccccc2)[C@@H]1CO
1.4% | CCC(=O)Nc1nnc(C)s1
? | COc1cc(OC)c(NC(=S)Nc2cc(Cl)cc(Cl)c2)cc1Cl
-10.4% | Cc1[nH]n2c(=O)c3c(nc2c1-c1cccc2ccccc12)CCC3
-4.8% | Cc1ccsc1/C=N/N1CCN(C2c3ccccc3-c3ccccc32)CC1
-12.7% | O=C1c2ccccc2C(=O)c2c1cccc2N1CCN(Cc2ccccc2)CC1
-6.6% | CSc1ccc(NC(=O)NCCN2CCc3ccccc3C2)cc1
1.3% | C=C(C)C1CC=C(C)/C(=N/NC(=O)c2ccoc2C)C1 (stereo not drawn)
? | CC(C)c1ccccc1-n1c(SCc2cc(=O)oc3ccc4ccccc4c23)nnc1-c1cccnc1
-9.9% | CCOC(=O)C1CCN(S(=O)(=O)c2cc(Br)cc3c2N(C(C)=O)C(C)C3)CC1 (stereo not drawn)

# Ordered by formula weight (ascending): part of the list above
HPGD inh | structure
2.5% | COc1ccc(C(=O)Nc2ccccc2)cc1S(=O)(=O)Nc1cc(C)on1
2.9% | O=C1c2ccccc2C(Cc2ccnc(F)c2)(Cc2ccnc(F)c2)c2ccccc21
7.2% | Cc1ccc(S(=O)(=O)NCCOCCNS(=O)(=O)c2ccc(C)cc2)cc1

# Other compounds:
HPGD inh | structure
-3.3% | O=C(c1ccco1)N1CCN(C(c2cccs2)c2sc3ncnn3c2O)CC1 (stereo not drawn)
-16.5% | COc1ccc(S(=O)(=O)Nc2ccc(NC(C)=O)cc2)cc1
-7.2% | COCCN(C(=O)c1csnn1)C(C(=O)NC(C)(C)C)c1cccc(OC)c1 (stereo not drawn)
? | COc1ccc(C(=O)c2no[n+]([O-])c2C(=O)c2ccc(OC)cc2)cc1
-3.9% | O=c1cc(-c2c(F)c(F)c(F)c(F)c2F)oc2c(F)c(F)c(F)c(F)c12
-10.5% | O/N=C1\CCC\C1=C/c1ccco1
-12.2% | CCn1cc(Br)c(C(=O)NN)n1
-14.7% | COc1ccccc1N1CCN(CCNC(=O)Nc2cccc(C)c2C)CC1
-10.9% | CCC(=O)Nc1cccc(NC(=O)c2cccc([N+](=O)[O-])c2C)c1
-18.1% | COc1ccc(-c2nnc(SCC(=O)c3ccc[nH]3)o2)cc1
2.6% | OC1C2(Cc3ccccc3)CN3CCN(C2)CC1(Cc1ccccc1)C3 (stereo not drawn)
14.1µM* | O=C(C1CCCN(S(=O)(=O)c2cccc3nonc23)C1)N1CCN(c2ccccc2Cl)CC1 (stereo not drawn)
-13.5% | Cc1csc(NC(=O)CN2C(=O)C3CC=CCC3C2=O)n1 (stereo not drawn)
? | COC(=O)Cn1c(=NC(=O)c2cccc(OC)c2)sc2cc(OC)ccc21
0.6% | COc1ccc(C)cc1NC(=O)CN1CCN(CC(=O)Nc2ccccc2F)CC1

# Further structures follow.
HPGD inh | structure
-4.6% | O=c1[nH]c2cc3c(cc2cc1CN(Cc1nnnn1C1CCCC1)C1CCCC1)OCCO3
-8.0% | COC(=O)Cn1c2[n+](c3ccccc31)CC(O)CS2 (stereo not drawn)
-8.2% | CCN(CC)CCCNC(=O)C1CCCN(c2nnc(N3CCCC3=O)s2)C1 (stereo not drawn)
-16.9% | Cc1occc1-c1nnc(SCC(=O)N(C)C)o1
-8.8% | N#Cc1nc(Cc2cccc3ccccc23)oc1NCc1ccc(F)cc1
-6.6% | Cc1cccc(Sc2ccc([N+](=O)[O-])cn2)c1
? | N#Cc1nc(-c2cccs2)oc1NCc1ccc2c(c1)OCO2
-16.8% | CC1=C(C(=O)Nc2cccnc2)C(c2ccccn2)n2nnnc2N1 (stereo not drawn)
-6.7% | N/C(=N\OC(=O)c1cccc(Cl)c1)c1ccccn1
-6.6% | CCN(C(=O)Cn1c(=O)oc2ccccc21)C1CCS(=O)(=O)C1 (stereo not drawn)
-10.9% | Cc1cccnc1NC(=O)c1c(O)c2cccc3c2n(c1=O)CCC3
-6.0% | CC1CCN(CCCNC(=O)C2CCN(S(=O)(=O)N3CCCCC3)CC2)CC1
-22.5% | O=C(CSc1nc(-c2ccco2)cc(C(F)(F)F)n1)N1CCN(c2ccc(Cl)cc2)CC1
-14.2% | Cc1ccc2nc(SCC(=O)NCc3ccco3)[nH]c2c1
-7.0% | CS(=O)(=O)N(CC(=O)NCc1ccc(Cl)cc1)C1CCCCC1

# (continued)
HPGD inh | structure
-10.4% | COc1ccc([N+](=O)[O-])cc1NCc1ccccc1C
-6.5% | COc1ccc(NC(=O)CN(C)C(=O)c2ccc(C)s2)cc1
-10.6% | COc1ccc(S(=O)(=O)N(C)CC(=O)Nc2cccc(C(C)=O)c2)cc1Cl
-4.2% | Cc1ccc(C)c(OCCSc2nnc(-c3cccnc3)n2N)c1
20µM* | COc1cc(Nc2ccc(C(=O)O)cc2[N+](=O)[O-])cc(OC)c1
? | CC1Cc2ccccc2N1C(=O)c1cc2c(=O)n3ccccc3nc2n1C (stereo not drawn)
? | N#CCCn1c(=O)c(-c2ccccc2)nc2cnc(OCc3ccccc3)nc21
-2.9% | C=C(C)CSc1nnc(CCNC(=O)OC(C)(C)C)o1
-7.8% | COc1ccc(C(C)=O)cc1COC(=O)c1cnc(C)cn1
-7.6% | Cc1cc(C)n(C(CC(=O)O)C(=O)O)n1 (stereo not drawn)
-3.6% | COCCN1C=C2C(=O)C(C)(OC(=O)C3CCCC3)C(=O)C=C2C=C1c1ccsc1 (stereo not drawn)
-20.8% | CCCCOc1ccc(C2C(C(=O)c3ccc(C)o3)=C(O)C(=O)N2CC2CCCO2)cc1 (stereo not drawn)
-18.9% | O=C(Nc1cc2c(cc1Br)OCCCO2)c1ccccc1
-4.6% | CCn1c(=O)cc(SCC(=O)NCc2ccc3c(c2)OCO3)c2ccccc21
-11.2% | Cc1ccsc1/C=C(\C#N)C(=O)NCc1cccnc1

# The list continues:
HPGD inh | structure
-8.1% | CCCC(=O)N(CCN(Cc1ccccc1)C(=O)CCC)Cc1ccccc1
-17.8% | CCOC(=O)CCC(=O)N1CCOCCOCCOCC1
14.1µM* | O=C(NCc1ccco1)c1nc2c(nnn2Cc2ccccc2Cl)c(=O)[nH]1
-5.9% | Cc1ccc(NC2=Nc3ccccc3N3C2=Nc2c(c(C)nn2-c2ccccc2)C3c2ccc(O)c(O)c2)cc1 (stereo not drawn)
-13.7% | Cc1ccc(CNC(=O)C(C)OC(=O)c2cccs2)cc1 (stereo not drawn)
-10.7% | Cc1ccc(C(=O)N(c2ccccn2)C(C)c2ccco2)cc1C (stereo not drawn)
-15.2% | CCOC(=O)C1C(=O)OC(C)(C)C1C(C)C(=O)c1ccc(C)cc1 (stereo not drawn)
-13.7% | O=C1CN(C(=O)CN2CCOCC2)C(c2ccccc2)c2cc(Br)ccc2N1 (stereo not drawn)
-11.9% | Cc1ccc(S(=O)(=O)N2CCN(C(=O)c3cc4c(C)nn(-c5ccccc5C)c4s3)CC2)cc1
? | CCOC(=O)c1c(C)nc2sc(C(=O)Nc3ccc(OC)cc3)c(N)c2c1-c1ccc(OC)cc1
-9.1% | CC(C)(C)Nc1oc(-c2ccccc2)nc1-c1ccc(C(F)(F)F)cc1
-2.0% | Cc1ccc(-n2nnnc2SCC(=O)c2cc(C)n(CC3CCCO3)c2C)cc1 (stereo not drawn)
? | Cc1ccc(C)c(Cc2c(C)nc3c(C(=O)N4CCOCC4)cnn3c2C)c1
-7.3% | CCC(=O)OCCCCCCOc1ccc(C(=O)O)cc1
? | COc1ccc(-c2cc(C(F)(F)F)n3nc(C(=O)N4CCCCC4)cc3n2)cc1

# HPGD inh: what is marked active above.
HPGD inh | structure
3.16µM* | Clc1ccc(OCc2nn3c(-c4ccco4)nnc3s2)c(Cl)c1
14.1µM* | O=C(C1CCCN(S(=O)(=O)c2cccc3nonc23)C1)N1CCN(c2ccccc2Cl)CC1 (stereo not drawn)
20µM* | COc1cc(Nc2ccc(C(=O)O)cc2[N+](=O)[O-])cc(OC)c1
14.1µM* | O=C(NCc1ccco1)c1nc2c(nnn2Cc2ccccc2Cl)c(=O)[nH]1

# New compounds follow:
HPGD inh | structure
-19.5% | [O-][N+]1=c2ccc(Nc3ccccc3)cc2=NC12CCCCC2
-22.0% | Cc1cc(/C=N/n2cnnc2)c(C)n1-c1ccc(OCc2ccc(Cl)cc2)cc1
-0.4% | CCOC(=O)N1CCN(C(=O)C(C)N(c2ccc(Oc3ccccc3)cc2)S(C)(=O)=O)CC1 (stereo not drawn)
-5.2% | CCc1cc2c(=O)[nH]c(Cc3ccccc3)nc2s1
